E coli growth: inhibitors of Escherichia coli growth. OD600, 23 h; stronger effect = lower value. OD600 absorbance (no concentration beside the values). 330,000 tested, 0.21% active;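 active means OD600 absorbance below the run mean of sample wells minus 3.6 SD, in any replicate, cut at about 0.56 in these data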;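 further: stock transfer was 300 nL into about 60 µL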
The depositor's hits bear a star; & = joins results of further samples. These rows are one share of the data. The share of hits here may be higher or lower than overall.

SMILES	E coli growth
Clc1ccc(C2C3CN(Cc4cccnc4)C(c4ccccc4)C34CC2(c2cccnc2)C4)cn1 (stereo not drawn)	0.68
O=C(C=Cc1ccc(F)cc1)NC(=S)N1CCOCC1	0.68
O=C(C1=CC(c2csc3ccccc23)CC(OCCCCO)O1)N1CCN(Cc2ccc3c(c2)OCO3)CC1 (stereo not drawn)	0.69&0.65
O=C(C1=CC(c2ccc(Br)cc2)CC(OCc2ccc(CO)cc2)O1)N1CCN(Cc2ccccc2)CC1 (stereo not drawn)	0.71
CCOC(=O)C1C2COc3cc(OC)ccc3C2N2C(=O)N(c3cccc(C)c3)C(=O)[C@]12C (stereo partly drawn)	0.69&0.7
C#CCOCCOCCOCCNc1nc(N2CCN(C(=O)C(CCCCN)n3cc(CCCC)nn3)CC2)nc(N2CCN(C(=O)C(CCCCN)n3cc(CCCC)nn3)CC2)n1 (stereo not drawn)	0.69
CCN1CCCC1CNC(=O)c1c(O)c(Cl)cc(Cl)c1OC (stereo not drawn)	0.7&0.71
NC(=O)CCC1NC(=O)C(CO)NC(=O)c2cc([N+](=O)[O-])cc(I)c2NCCCCC(C(N)=O)NC(=O)C(Cc2ccc(O)cc2)NC1=O (stereo not drawn)	0.69
Oc1ccccc1N=NC(=NNc1ccccc1O)c1ccccc1	0.62
O=C(NCc1nc2ccccc2[nH]1)C1=CC(c2ccc3c(c2)OCO3)CC(OCCCCO)O1 (stereo not drawn)	0.63
CN(C)c1ccc(-c2ccc(C3C4C=CCC[C@@]4(C)C(=O)N3Cc3ccccc3)c(F)c2)cc1 (stereo partly drawn)	0.74
COc1ccc(NC(=O)Nc2ccc3c(c2)C(=O)N(C(C)CO)CC(C)C(CN(C)C(=O)Nc2c(C)noc2C)O3)cc1 (stereo not drawn)	0.69
CC(C)(OC1OC(CO)C(O)C(O)C1O)C1Oc2ccc3ccc(=O)oc3c2C1O (stereo not drawn)	0.68
CC(=Cc1ccccc1)C(=O)NCCc1ccccc1	0.7
COC(=O)C1C[C@@]2(Br)c3ccccc3N(S(=O)(=O)c3ccccc3)C2N1C(=O)OC (stereo partly drawn)	0.63
Oc1ccc(CC2CNCCN2CCc2cccc(F)c2)cc1 (stereo not drawn)	0.67&0.71
COC(=O)C1CC1C(NC(=O)c1cccnc1)c1ccccc1 (stereo not drawn)	0.7&0.69
Cc1ccc(SCC(c2ccccc2)N2CCN(CCc3ccccc3)CCC2=O)cc1 (stereo not drawn)	0.68
COc1ccc(NC(=O)N(C)CC2Oc3c(NS(=O)(=O)c4cccs4)cccc3C(=O)N(C(C)CO)CC2C)cc1 (stereo not drawn)	0.66
Cc1ccc(CN2C(CC(C)C)COCCS2(=O)=O)cc1 (stereo not drawn)	0.67
c1ccc(C2(CN3CCNCC3CC3CCCCC3)CC2)cc1 (stereo not drawn)	0.67
COc1ccc(C=C2Oc3ccccc3C2=O)cc1	0.67
COC(=O)C1CC2CCC(O)CC2N1Cc1ccc(-c2ccccc2)cc1 (stereo not drawn)	0.64
CCOC(=O)C1C2COc3cc(OC)ccc3C2N2C(=O)N(c3ccc(C)cc3)C(=O)[C@@]12C (stereo partly drawn)	0.68
CCC1=C(OC(=O)N(CC)CC)N2C(=O)OC(=NCCOC)[C@]2(Cc2ccccc2)C2C1=CCC1C(=O)N(CC)C(=O)C12 (stereo partly drawn)	0.64

(further entries)
SMILES	E coli growth
O=C1NCC(Cc2ccccc2)N(CC2CCCCC2)C1=O (stereo not drawn)	0.69
CC(C)n1cc(C2CC3CN(Cc4cccc(Cl)c4)C(=O)[C@]34CCCN24)cn1 (stereo partly drawn)	0.67
C=CCOC(=O)C1=CC(c2coc3ccccc3c2=O)CC(OCCCCO)O1 (stereo not drawn)	0.7
C#CCOCCOCCOCCNc1nc(N2CCOCC2)nc(N2CCN(C(=O)C(Cc3ccc(O)cc3)n3cc(CCO)nn3)CC2)n1 (stereo not drawn)	0.7
CC(NC(=O)c1nc[nH]c1C(=O)NC(C)c1ccccc1)c1ccccc1 (stereo not drawn)	0.65&0.68&0.68
CC1CC=CC2C1C(=O)N(Cc1ccccc1)C2c1ccc(-c2ccc(F)cc2)cc1F (stereo not drawn)	0.73
CCN(CC)C(=O)c1[nH]cnc1C(=O)NC(CC(C)C)C(=O)OCc1ccccc1 (stereo not drawn)	0.62
COC(=O)c1ccc2[nH]c(C(C)O)c(C(C)O)c2c1 (stereo not drawn)	0.7
CCN1C(=O)C2C(c3ccc(OC)cc3)N3C(=O)CN(CCOC)C(=O)[C@@]3(C)C2C1=O (stereo partly drawn)	0.69
CC(O)C1CN=C(N)N1CCc1cc(C(F)(F)F)cc(C(F)(F)F)c1 (stereo not drawn)	0.7
O=C(CC1CC=CCCCC(=O)OCC2CCCN2C1=O)NCCO (stereo not drawn)	0.7&0.71
NC(CO)c1cn(C(CCC(=O)O)C(=O)N2CCNCC2)nn1 (stereo not drawn)	0.7
CC=CC(=O)N1CC2(CC(c3cccc(NC(=O)C(C)=CC)c3)=NO2)CC1C(N)=O (stereo not drawn)	0.64
COC(=O)c1ccc(Cl)cc1NC(=O)C=Cc1ccc(C)o1	0.71
CCN1C(=O)C2C(c3ccc(Cl)cc3)N3C(=O)CN(CCOC)C(=O)[C@@]3(C)C2C1=O (stereo partly drawn)	0.71
O=C(C=Cc1cccc([N+](=O)[O-])c1)c1ccc([N+](=O)[O-])o1	0.57
O=C(CC1CC=CCCCC(=O)OCC(c2ccccc2)NC1=O)NCCO (stereo not drawn)	0.7
C=CCOC(=O)C(=O)C=Cc1c(C)n(C)n(-c2ccccc2)c1=O	0.66
CCCN1CCC(=O)N(C(CSc2ccc(OC)cc2)c2ccccc2)CC1 (stereo not drawn)	0.7
CC(C(=O)NCCc1c[nH]c2ccccc12)C1C[C@]1(C)C(NC(=O)OCc1ccccc1)c1ccccc1 (stereo partly drawn)	0.68
Cc1cccc(C2C3C(=O)N(Cc4ccccc4)C(=O)C3[C@]3(C)C(=O)N(c4ccc(C(F)(F)F)cc4)C(=O)N23)c1 (stereo partly drawn)	0.73
CCOC(=O)C(O)C(O)c1cccc(C(O)C(O)C(=O)OCC)c1 (stereo not drawn)	0.7
CCCC(C(=O)O)N1C(=O)C(=C2C(=O)N(C)c3ccccc32)SC1=S (stereo not drawn)	0.68
CCOC1OC(C(=O)N2CCCCCCC2)=CC(c2csc3ccccc23)C1CCCO (stereo not drawn)	0.66&0.67
Cc1ccc(NC(=O)c2nc[nH]c2C(=O)NC(C)C(=O)OC(C)(C)C)cc1 (stereo not drawn)	0.66

Remaining list, next part
SMILES	E coli growth
CCOC(=O)C1C2COc3ccc(C)cc3C2N2C(=O)c3cc(Br)ccc3NC(=O)[C@@]12C (stereo partly drawn)	0.71
COc1ccc(C2CC(=O)C=C(c3ccccc3OC)C2)cc1OC (stereo not drawn)	0.67
COc1ccccc1NC(=O)COC(=O)C=Cc1ccc2c(c1)OCO2	0.7
CCOC1OC(C(=O)N2CCN(Cc3ccccc3)CC2)=CC(C2CCCCC2)C1CCCO (stereo not drawn)	0.67
CC(=O)OC(COc1c2ccoc2cc2oc(=O)ccc12)C(C)(C)O (stereo not drawn)	0.65
CC1=CSC(=C(C#N)C(=O)N2CCCCC2)N1c1ccccc1	0.68
COC(=O)C1NC(C(NC(=O)COc2ccccc2)C(=O)NCc2ccc(OC)cc2)SC1(C)C (stereo not drawn)	0.7
COc1ccc(C2C=CCN(C(=O)NC(C)C)CC(=O)N2Cc2ccc(F)cc2)cc1 (stereo not drawn)	0.63
FC(F)(F)c1ccc(C2C3CN(Cc4cccnc4)C(c4ccccc4)C34CC2(c2ccccc2)C4)cc1 (stereo not drawn)	0.73
C#CCNC(=O)C1=CC(c2ccccc2)CC(OCCCCO)O1 (stereo not drawn)	0.63&0.69
COc1cc2c(cc1OC)C(=O)N1C3c4cc(C)ccc4OCC3C(c3ccccc3)[C@]1(C)C(=O)N2 (stereo partly drawn)	0.72
COC(=O)[C@@]12CCCCN1C(c1ccc(-c3ccc(Cl)c(Cl)c3)cc1)C1C(=O)N(C)C(=O)C12 (stereo partly drawn)	0.74
CCN1C(=NCCOC)NC(CCc2ccccc2)C(C(=O)OC)C1C (stereo not drawn)	0.66
CCn1c(SCC(=O)NN=CC=Cc2ccco2)nc2ccccc21	0.69
CCOC(=O)C1C2COc3ccc(Cl)cc3C2N2C(=O)c3ccc(Cl)cc3NC(=O)[C@@]12C (stereo partly drawn)	0.71
CCN1C(=O)C(=CN2CC(C)CC(C)C2)SC1=S (stereo not drawn)	0.73
CC1CN(C(C)CO)C(=O)c2cc(NC(=O)C3CC3)ccc2OC1CN(C)C(=O)NC1CCCCC1 (stereo not drawn)	0.59&0.69
COc1cc2c(cc1O)C1Cc3cc(OC)c(OC)cc3C(C2)N1C (stereo not drawn)	0.67
CC(NC(=O)c1nc[nH]c1C(=O)NC1CCN(C(=O)OC(C)(C)C)CC1)c1ccccc1 (stereo not drawn)	0.66
CC(C)(C)C1CCC(=O)N(C(CSc2ccc(Br)cc2)Cc2ccccc2)CC1 (stereo not drawn)	0.68
C#CCNC(=O)C1=CC(c2ccc(C#C)cc2)C(CCCO)C(OCC)O1 (stereo not drawn)	0.68
O=C1c2ccccc2C(=CC#Cc2ccccn2)N1c1ccccc1	0.7
CC1CCC(=O)N(CCSc2ccc(Br)cc2)CC1 (stereo not drawn)	0.68
O=C(NC1CC1)C1=CC(c2c[nH]c3ccccc23)CC(OCc2ccc(CO)cc2)O1 (stereo not drawn)	0.69&0.7
COC(=O)C1CC1C(NC(=O)c1cc(C)on1)c1ccccc1 (stereo not drawn)	0.62

More compounds follow:
SMILES	E coli growth
CC1(C)C(O)CC[C@@]2(C)C1CC[C@]1(C)C2C(O)C=C2C3C[C@@](C)(CO)CC[C@]3(C)CC[C@@]21C (stereo partly drawn)	0.61
Cc1ccc(C(=O)c2c3ccccc3[n+]([O-])n2C(C)C(N)=O)cc1 (stereo not drawn)	0.73
CCCC(CNC(CNC)C(C)CC)NCC1CCC(C(C)(C)C)CC1 (stereo not drawn)	0.69
CCOC(=O)C1C2COc3ccc(Cl)cc3C2N2C(=O)CNC(=O)[C@@]12C (stereo partly drawn)	0.7&0.65
C#CCOCCOCCOCCNc1nc(N2CCN(C(=O)C(C(C)O)n3cc(CCCCN)nn3)CC2)nc(N2CCN(C(=O)C(C(C)CC)n3cc(CCCCN)nn3)CC2)n1 (stereo not drawn)	0.71
CC(=C(CCO)SSCC1CCCO1)N(C=O)Cc1cnc(C)nc1N (stereo not drawn)	0.68
CCCCCC(=O)N1CC2(CC(c3cccc(NC(=O)COc4ccc(Cl)cc4)c3)=NO2)CC1C(N)=O (stereo not drawn)	0.69
COc1cc2c(c(OC)c1OC)-c1c(cc3c(c1O)OCO3)CC(C)C(C)C2 (stereo not drawn)	0.66
CC(C)(C)OC(=O)CC1CC=CCC(CC(=O)N(CCO)Cc2ccccc2)C(=O)NC(Cc2ccccc2)COC1=O (stereo not drawn)	0.72&0.66&0.72&0.73&0.72&0.69
COc1ccc(C2OCC3OC(O)C(NC(C)=O)C(O)C3O2)cc1 (stereo not drawn)	0.62
CCOC1OC(C(=O)NCc2ccccc2)=CC(c2ccc(C(F)(F)F)cc2)C1CCCO (stereo not drawn)	0.66&0.69
COCCNC(=O)COC(=O)C=Cc1c(C)nn(Cc2ccc(Cl)cc2Cl)c1Cl	0.67
CC(O)Cc1cn(CC(=O)NCCCCCCCCCCC(=O)N2CCNCC2)nn1 (stereo not drawn)	0.68
NC(=NOC(=O)C(c1ccccc1)c1ccccc1)c1ccccn1	0.67
O=C1C2C(C3CC3)N3C(=O)CN(Cc4ccccn4)C(=O)[C@@]3(Cc3ccccc3)C2C(=O)N1c1ccccc1 (stereo partly drawn)	0.69
O=C1Nc2ccccc2C(=O)N2C1C1C(=O)N(Cc3ccccc3)C(=O)C1C2c1ccccc1 (stereo not drawn)	0.7
COc1ccccc1C(=O)NC(=Cc1ccccc1)C(=O)Nc1ccc(C(=O)O)cc1	0.73
O=C1CCN(Cc2ccc(O)cc2)CCN1C(CO)c1ccccc1 (stereo not drawn)	0.72
C#CCOCCOCCOCCNc1nc(N2CCN(C(=O)C(C(C)C)n3cc(CCO)nn3)CC2)nc(N2CCN(C(=O)C(C(C)CC)n3cc(CCCN=C(N)N)nn3)CC2)n1 (stereo not drawn)	0.7
COc1ccc(C2C=CCN(S(=O)(=O)c3ccc(-c4ccccc4)cc3)CC(=O)N2Cc2ccc(F)cc2)cc1 (stereo not drawn)	0.7
CCOc1ccc(C2C(=C(O)c3cccc(OC)c3)C(=O)C(=O)N2c2cc(C)on2)cc1OC (stereo not drawn)	0.68
CCCCCCCCN1C(CC(=O)OCC)c2cc(F)ccc2S1(=O)=O (stereo not drawn)	0.7
O=C1C=C(c2ccc3c(c2)OCO3)CC(c2ccc(F)cc2)C1 (stereo not drawn)	0.69
C=CCC(CC(=O)NCCO)C(=O)NC(COC(=O)C(CC=C)Cc1ccc(F)cc1)C(C)(C)C (stereo not drawn)	0.69

In the list so far, these contain a Cl atom:
SMILES	E coli growth
Clc1ccc(C2C3CN(Cc4cccnc4)C(c4ccccc4)C34CC2(c2cccnc2)C4)cn1 (stereo not drawn)	0.68
CCN1CCCC1CNC(=O)c1c(O)c(Cl)cc(Cl)c1OC (stereo not drawn)	0.7&0.71
CC(C)n1cc(C2CC3CN(Cc4cccc(Cl)c4)C(=O)[C@]34CCCN24)cn1 (stereo partly drawn)	0.67
COC(=O)c1ccc(Cl)cc1NC(=O)C=Cc1ccc(C)o1	0.71
CCN1C(=O)C2C(c3ccc(Cl)cc3)N3C(=O)CN(CCOC)C(=O)[C@@]3(C)C2C1=O (stereo partly drawn)	0.71
COC(=O)[C@@]12CCCCN1C(c1ccc(-c3ccc(Cl)c(Cl)c3)cc1)C1C(=O)N(C)C(=O)C12 (stereo partly drawn)	0.74
CCOC(=O)C1C2COc3ccc(Cl)cc3C2N2C(=O)c3ccc(Cl)cc3NC(=O)[C@@]12C (stereo partly drawn)	0.71
CCOC(=O)C1C2COc3ccc(Cl)cc3C2N2C(=O)CNC(=O)[C@@]12C (stereo partly drawn)	0.7&0.65
CCCCCC(=O)N1CC2(CC(c3cccc(NC(=O)COc4ccc(Cl)cc4)c3)=NO2)CC1C(N)=O (stereo not drawn)	0.69
COCCNC(=O)COC(=O)C=Cc1c(C)nn(Cc2ccc(Cl)cc2Cl)c1Cl	0.67

Bioassay records as filed in PubChem BioAssay.
